High-throughput results from PubChem.
miR-21 reporter – miR-21 reporter, rising signal; Potency, µM (top dose mostly 38.3 µM), for the others: top-dose reporter change, positive = more light; HeLa miR-21 FLuc reporter, luciferase, 48 h; 340,000 tested, under 10 active; active = well fitted rising curve with a large enough effect; inconclusive = small, poorly fitted or top-dose-only effect; inactive = no such curve, though single readings can be large or run the other way;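 also: % of control where 0% means no effect; miR-21 action dims this reporter so a rising signal means less miR-21 action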
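HeLa miR-21-FLuc reporter line, endogenous miR-21; 2000 cells/well in DMEM/10% FBS; compound titration up to ~40uM final, 48 h, 37 degree Celsius; luciferase detection reagent, 15 min lysis, CCD luminescence.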
An asterisk follows results filed as active; ? = inconclusive. A portion of the library (hit frequency here may not be typical).

SMILES | miR-21 reporter
COCCN1C(=O)c2[nH]nc(-c3ccccc3O)c2C1c1ccc(OCc2ccccc2)c(OC)c1 (stereo unspecified) | 4%
CC1=C(C(=O)Nc2ccc(Cl)cc2)C(c2ccc(C(F)(F)F)cc2)n2nnnc2N1 (stereo unspecified) | 18%
CCOc1ccc(NC(=O)CNS(=O)(=O)c2ccc(Br)s2)cc1 | 8%
COc1ccc(CCNC(=O)CCCn2nc(C)c3sc4ccccc4c3c2=O)cc1OC | -59%
Cc1cc(Cl)ccc1OCC(=O)N(Cc1ccc(N(C)C)cc1)CC1CCCO1 (stereo unspecified) | ?
CC(=O)N1c2ccccc2C(=O)C1N1CCN(c2cc(Cl)ccc2C)CC1 (stereo unspecified) | 15%
CCC1CCCCN1S(=O)(=O)c1ccc(C(=O)Nc2sc3c(c2C(N)=O)CCC3)cc1 (stereo unspecified) | 8%
CCOC(=O)CSc1nc(-c2ccc(F)cc2)cc(C(F)(F)F)c1C#N | 1%
CCCc1cc(=O)[nH]c(Nc2ccc(OCC)cc2)n1 | -8%
CCOc1cccc(C2c3[nH]c4ccccc4c3CCN2C(=O)CSCc2ccc(F)cc2)c1 (stereo unspecified) | ?
CCOC(=O)N1CCN(c2ncc3c(n2)CC(c2ccc(OC)c(OC)c2)CC3=O)CC1 (stereo unspecified) | 18%
COCCCNC(=O)N1CCN(c2nnc(C)c3c(C)n(-c4ccc(Cl)cc4)nc23)CC1 | -3%
CCOC(=O)c1ccc(NC(=O)CN(c2ccc(C)cc2)S(=O)(=O)c2c(C)noc2C)cc1 | ?
Cc1c(CCNC(=O)c2ccc(C(F)(F)F)cc2)sc2nc(-c3ccc(F)cc3)nn12 | -8%
O=S(=O)(c1ccc(Cl)cc1)c1nc(-c2ccccc2Br)oc1N1CCOCC1 | 4%
Cc1ccc(O)c(NC(=O)c2cc(-c3ccc(F)cc3)no2)c1 | 5%
Cc1cccc(-c2nc(CN3CCCC(C(=O)N4CCN(c5cc(Cl)ccc5C)CC4)C3)c(C)o2)c1 (stereo unspecified) | 22%
CCOc1ccc(NC(=O)Cn2cnc3nc4c(cc3c2=O)CCCC4)cc1 | 3%
COCCCNC(=O)CCCn1c(=O)c2cccn2c2cccnc21 | -12%
COc1ccc(-n2c(=O)c3c(c4cc(OC)ccc4n3C)n(Cc3ccc(F)cc3Cl)c2=O)cc1 | 2%
O=C(CCC1CCCC1)N1CCc2c([nH]c3ccccc23)C1c1ccc(Cl)cc1 (stereo unspecified) | 0%
CCC(Oc1ccc(F)cc1)C(=O)Nc1nc(-c2ccc(F)cc2)ns1 (stereo unspecified) | ?
COc1cc(OC)c(Nc2nc3ccc(C)cc3n3nnnc23)cc1Cl | -5%
CC1CCN(CCCNC(=O)c2cc(Sc3ccc(F)cc3)nc3ccccc23)CC1 | -2%
CCCCN(CCCNC(=O)c1cc(Nc2cccc(SC)c2)nc2ccccc12)Cc1ccccc1 | 1%
Fc1ccc(NCc2ccccc2-c2nnc(-c3ccccc3Cl)o2)cc1 | -58%
COCCCNC(=O)C1CCCN(c2ncnc3onc(C)c23)C1 (stereo unspecified) | 4%
O=C(NCC(c1cccs1)S(=O)(=O)c1cccs1)c1ccccc1F (stereo unspecified) | -8%
Cc1ccc(-n2c(=O)cc(N3CCN(c4ccccc4Cl)CC3)[nH]c2=O)cc1 | 0%
CCOc1ccc(-n2c(SCC(=O)NCc3ccccc3)nc3n[nH]c(C)c3c2=N)cc1 | -9%
COc1ccccc1NC(=O)Cn1c(=O)n(Cc2ccco2)c(=O)c2cccnc21 | 4%
O=C(Cc1ccccc1)Nc1c(C(=O)c2ccccc2)oc2ccccc12 | -18%
Cc1c(Cl)cccc1NC(=O)CNS(=O)(=O)c1cccs1 | -5%
Cc1cccc(N2CC(c3nc4ccccc4n3CCC3CCCCC3)CC2=O)c1 (stereo unspecified) | 3%
Cc1ccc(-n2cnc3cc(C(=O)NCc4ccccc4Cl)ccc32)c(C)c1 | -2%
O=C(C1CCCN(S(=O)(=O)c2cccc3nonc23)C1)N1CCN(c2cccc(C(F)(F)F)c2)CC1 (stereo unspecified) | 26%
COc1ccc(Cn2c(NCC(C)C)nc3c2c(=O)n(C)c(=O)n3C)cc1 | -9%
CNC(=O)CCCN1C(=O)c2cccnc2Sc2ccccc21 | -1%
Cc1ccc2c(C(=O)CN3CCC(C(N)=O)CC3)c(C)[nH]c2c1 | -8%
COc1ccc(N2CCN(C(=O)C3CCN(S(=O)(=O)c4cn(C)cn4)CC3)CC2)cc1 | -1%

Compounds from the list above with a thiophene ring, fused or not:
SMILES | miR-21 reporter
CCOc1ccc(NC(=O)CNS(=O)(=O)c2ccc(Br)s2)cc1 | 8%
COc1ccc(CCNC(=O)CCCn2nc(C)c3sc4ccccc4c3c2=O)cc1OC | -59%
CCC1CCCCN1S(=O)(=O)c1ccc(C(=O)Nc2sc3c(c2C(N)=O)CCC3)cc1 (stereo unspecified) | 8%
O=C(NCC(c1cccs1)S(=O)(=O)c1cccs1)c1ccccc1F (stereo unspecified) | -8%
Cc1c(Cl)cccc1NC(=O)CNS(=O)(=O)c1cccs1 | -5%

Remaining list, next part:
SMILES | miR-21 reporter
O=C(Cn1nc(C(F)(F)F)c2c1CCC2)Nc1ccc(Cl)cc1 | 15%
C=Cc1ccc(Cn2c(C(=O)O)c(CNC3CCCCC3)c3ccc(OC)cc32)cc1 | -4%
Cc1cccc(-c2noc(CCCC(=O)NCc3ccco3)n2)c1 | 16%
CCc1ccc(Nc2nnc(-n3nc(C)cc3C)c3ccccc23)cc1 | -11%
CC(=O)c1cccc(NC(=O)Cn2ccn3nc(-c4ccccc4)cc3c2=O)c1 | -2%
CCCC(CCC)C(=O)Nc1nnc2n1CCS2 | -4%
CCc1cccc(C)c1NC(=O)CSc1nc2ccccc2nc1N1CCOCC1 | 8%
Cc1ccc(-c2nc3c(c(SCC(=O)N4CCCCC4)n2)Cc2cc(C)ccc2O3)cc1 | -1%
CCC(C)NC(=O)Cn1c(=O)c2cccn2c2ccc(F)cc21 (stereo unspecified) | -3%
COc1cccc(-n2c(SCC(=O)Nc3c(C)cc(C)cc3C)nc3c([nH]c4ccccc43)c2=O)c1 | 21%
Cc1oc(-c2cccc(Cl)c2)nc1CS(=O)(=O)CC(=O)NC(C)CCc1ccccc1 (stereo unspecified) | 0%
COc1cc(OC)c(NC(=O)c2c(C)oc3ncnc(N4CCCCC4)c23)cc1Cl | 5%
COc1ccccc1Cn1c(CNS(=O)(=O)c2cccc([N+](=O)[O-])c2)nc2cccnc21 | 1%
O=c1cc(-c2ccccc2)n2c(SCc3ccccc3)nnc2[nH]1 | -1%
CCN(CC)c1cc(C)c2cc(NC(=O)c3ccc(OC)c(OC)c3)ccc2n1 | -10%
O=C(c1ccc2c(c1)N(Cc1ccc(F)cc1)C(=O)c1ccccc1S2(=O)=O)N1CCN(Cc2ccccc2)CC1 | 27%
CCOC(=O)c1c(C)[nH]c(C)c1S(=O)(=O)NCC(=O)Nc1cccc(C(F)(F)F)c1 | 1%
O=C(COc1ccc(Cl)cc1)OCc1cc(=O)n2nc(C3CCCCC3)sc2n1 | -6%
CCOC(=O)Cn1c(=O)n(CC2CCCO2)c2nc(-c3ccccc3OC)nc(C(N)=O)c21 (stereo unspecified) | 2%
Cc1cccc(CCNC(=O)C2CCN(c3ncnc4c3nc3n4CCCCC3)CC2)c1 | -21%
CCN(C(=O)Cn1c(=O)oc2cc(S(=O)(=O)N3CCCC3)ccc21)c1cccc(C)c1 | 13%
CCN(C(=O)c1cc2c(=O)oc3ccc(C)cc3c2s1)c1cc(OC)ccc1OC | -4%
COc1ccccc1CNc1nc(-c2ccco2)nn1S(=O)(=O)c1ccc2ccccc2c1 | -33%
CCC(C)NC(=O)C1CCN(C(=O)c2ccc(-n3ccc4ccccc43)s2)CC1 (stereo unspecified) | -19%
Cc1ccc(-c2cc(C(=O)N(Cc3ccccc3)Cc3ccco3)no2)cc1F | -17%
COc1cc(C2N=C(N)Nc3nc4ccccc4n32)ccc1OCC(=O)O (stereo unspecified) | -1%
CC(C)CC(=O)Nc1ccc2nc(SCC(=O)N3CCCC3)sc2c1 | -9%
Cc1c(NC(=O)Nc2ccc(Cl)c(C(F)(F)F)c2)c(=O)n(-c2ccccc2)n1C | 12%
Cc1nn2c(=O)cc(COC(=O)c3ccc(NC(=O)COc4ccc(C)c(C)c4)cc3)nc2s1 | 0%
COc1ccc(CNC(=O)c2ccc(CS(=O)(=O)c3ccccc3OC)o2)cc1 | -7%

Structural class: the compounds so far containing two or more sulfur atoms
SMILES | miR-21 reporter
CCOc1ccc(NC(=O)CNS(=O)(=O)c2ccc(Br)s2)cc1 | 8%
CCC1CCCCN1S(=O)(=O)c1ccc(C(=O)Nc2sc3c(c2C(N)=O)CCC3)cc1 (stereo unspecified) | 8%
O=C(NCC(c1cccs1)S(=O)(=O)c1cccs1)c1ccccc1F (stereo unspecified) | -8%
Cc1c(Cl)cccc1NC(=O)CNS(=O)(=O)c1cccs1 | -5%
CC(C)CC(=O)Nc1ccc2nc(SCC(=O)N3CCCC3)sc2c1 | -9%

Following part.
SMILES | miR-21 reporter
Cc1c(C(=O)Nc2cccc(-c3nc4ccccc4s3)c2)oc2ccccc12 | -6%
CCN(C(=O)c1cc2c(=O)n3cccc(C)c3nc2s1)c1ccc(C)c(C)c1 | -8%
Cc1cccc(C(=O)Nc2sc3c(c2C(=O)Nc2ccccc2)CCC3)c1 | 0%
Cc1ccc(NC(=O)Cn2nc(C(F)(F)F)c3c2CCC3)cc1C | -4%
O=C(CSc1nc2ccccc2c(=O)n1CCC(=O)NC1CCCCC1)Nc1ccccc1Cl | -12%
COc1cccc(CNC(=O)CCCn2ncn3c(cc4occc43)c2=O)c1OC | 0%
CCC(=O)N1CCCc2cc(S(=O)(=O)N3CCC(C(=O)Nc4ccc(F)c(F)c4)CC3)ccc21 | ?
CCOC(=O)c1ccc(NS(=O)(=O)c2cn(C)c(C)n2)cc1 | -6%
COc1cc(NC(=O)c2ncn(-c3ccccc3)n2)cc(OC)c1 | -58%
Cc1ccccc1C1C=C(c2ccc(Cl)cc2)Nc2nnnn21 (stereo unspecified) | -9%
O=C(Cn1ncc2c(=O)oc3ccccc3c21)N1CCN(c2ccc(Cl)cc2)CC1 | 0%
Cn1c(=O)c2c(-c3ccccc3)n3c(c2n(C)c1=O)C(c1cc(Cl)ccc1O)Nc1ccccc1-3 (stereo unspecified) | 2%
COc1ccc(C(=O)Nc2ccc(-c3nc4cc(C)ccc4o3)c(O)c2)cc1 | -4%
Cc1ccc2oc3c(c(=O)c2c1)C(c1ccccc1F)N(CCCN(C)C)C3=O (stereo unspecified) | -20%
COc1ccc(OC)c(C2CC(=O)c3c([nH]c(C(=O)OCC4CCCCC4)c3C)C2)c1 (stereo unspecified) | -1%
COc1ccccc1C(=O)Nc1ccc2nc(SCC(=O)N3CCCc4ccccc43)sc2c1 | 21%
CCOc1ccc(NC(=O)Cn2c(=O)oc3cc(S(=O)(=O)NC4CCCC4)ccc32)cc1 | 5%
Cc1ccccc1NC(=O)C1CCN(C(=O)c2ccc(F)cc2)CC1 | -1%
Cc1ccccc1Nc1sc(C(=O)c2ccccc2)c(N)c1C(=O)NCc1ccc(Cl)cc1 | ?
CCOC(=O)c1cc(S(=O)(=O)Nc2c(C)cc(C)cc2C)[nH]n1 | 7%
CCC(Cn1nnc2ccccc2c1=O)NC(=O)Nc1cccc(Cl)c1 (stereo unspecified) | 18%
CCOC(=O)c1ccc(NC(=O)Cn2nc3c4ccccc4n(Cc4cccc(F)c4)cc-3c2=O)cc1 | -19%
COc1cc2c(-c3cccc(Cl)c3)nc3c(c(C)nn3-c3ccccc3)c2cc1OC | -1%
CCN(C(=O)c1cnc(N2CCOCC2)c2ccccc12)c1cc(C)ccc1C | 0%
O=S(=O)(c1ccc(Cl)cc1)c1nnn2c1nc(NCc1cccs1)c1sccc12 | -18%
COc1ccc(Cl)cc1NC(=O)C1CCCN(c2ncnc3onc(C)c23)C1 (stereo unspecified) | ?
COc1ccc(NS(=O)(=O)c2ccc3[nH]c4c(c3c2)CCCCC4)cc1 | -11%
CCc1ccc(-n2c(C)nc3cc(C(=O)NCCc4ccccc4)ccc32)cc1 | 0%
Cc1cc(C)cc(NC(=O)Cn2c(=O)n(C(C)C)c(=O)c3oc4ccccc4c32)c1 | 1%
O=C(Cn1cc(S(=O)(=O)c2ccc(F)cc2)c(=O)c2cc3c(cc21)OCO3)Nc1ccccc1 | 3%

A different layout for part of the listing above.
compound: CCc1ccc(-n2c(C)nc3cc(C(=O)NCCc4ccccc4)ccc32)cc1
  miR-21 reporter: 0%

compound: CCOC(=O)c1ccc(NC(=O)Cn2nc3c4ccccc4n(Cc4cccc(F)c4)cc-3c2=O)cc1
  miR-21 reporter: -19%

(listing goes on)
SMILES | miR-21 reporter
Cc1ccc(Cc2nc3ccccc3nc2SCC(=O)N2CCCCC2)cc1 | 20%
COc1ccc(OC)c(NC(=O)N2CCN(S(=O)(=O)c3ccc4c(ccn4C)c3)CC2)c1 | 14%
CCCOc1ccc(CNC(=O)CCCN2C(=O)CSc3c2c(C)nn3-c2ccccc2)cc1 | 10%
COc1ccc(NC(=O)c2cccn2-c2nnc(N3CCCCC3)s2)c(OC)c1 | -3%
Cc1cc(C)c(S(=O)(=O)Nc2ccc(-c3ccc(N4CCCCC4)nn3)cc2)c(C)c1 | -15%
COc1cc(OC)c(NC(=O)c2nn(C)c3c2COc2ccccc2-3)cc1Cl | -9%
Cc1ccc(N2C(=O)CSC23C(=O)N(CC(=O)NCc2ccccc2)c2ccccc23)cc1 (stereo unspecified) | -1%
CC(C)(C)OC(=O)N1CCC(c2c(C(=O)N3CCOCC3)cnn2-c2ccccc2Cl)CC1 | -3%
